HSD17B inh: HSD17B dehydrogenase inhibition; actives 7.6% (n = 75,000); Q99714; recombinant HSD17B10, NADH fluorescence kinetic; many of its hits are not listed in these tables; Potency, µM (titrated, usually from 57.1 µM), inactives show top-dose activity change, negative = inhibition, usual class: inhibitors; active means well fitted inhibition curve with a large enough effect; inconclusive means small, poorly fitted or top-dose-only effect; inactive means no such curve, though single readings can be large or run the other way;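 further: the protocol describes HADH2 (HSD17B10) and not the HSD17B4 of the title; nearly all actives have a fitted effect of over 70% in size; most hits overshoot -100% by far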
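Enzyme plus compound, 15 min room temperature; substrate mix added (NAD+ 1 mM, beta-hydroxybutyryl-CoA 90 uM final); plates read kinetically for NADH fluorescence. HADH2 was His-tagged, E. coli-derived, 20 nM.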
* hit, by the source's call; ? = inconclusive; [ ] = remark or other dose. On the % scale 0 is the no-effect control and ±100 the full control effect; potency means the concentration at half of the fitted maximal effect.

SMILES	HSD17B inh
NNC(=O)[C@@H](O)[C@H](O)[C@H](O)CO	7%[11.4 µM]
Cc1nnc(N2CCc3ccccc3C2)[nH]c1=O	2%
O=C(c1ccco1)N1CCN(S(=O)(=O)c2cccc(C(F)(F)F)c2)CC1	0%
CCC(C)n1[nH]c(=O)cc1N (stereo not drawn)	8%
CN(C)S(=O)(=O)c1cc(C(=O)NCCCn2ccc3ccccc32)ccc1Cl	-2%
O=c1c(-c2ccccc2)nc2cnc(Oc3cccc(Cl)c3)nc2n1C1CC1	?
CCc1cc2c(nc1CC)CCN(CC/C(C)=N/OC[C@H]1O[C@H](c3ccccc3)C=C[C@@H]1Oc1ccc(OC)cc1)C2	0%[11.4 µM]
CCCCOC(=O)Nc1ccc(N2CCOCC2)cc1	-11%
COc1cc(NC(=O)CCN2CCN(Cc3ccccc3)CC2)cc(OC)c1	9%
CN(C)c1ccc(NC(=O)c2ccncc2)c2ccccc12	-4%
CC(=O)OC1CC(OC(C)=O)[C@]2(C)C(CC(O)[C@]3(C)C2CC[C@@]2(C)C(c4ccoc4)OC(=O)C4O[C@]432)C1(C)C (stereo partly drawn)	-4%
CCCC(=O)Nc1ccc(C(=O)N2CCCC2)cc1	-5%
CN1CCc2nc(-c3ccccc3)c(-c3ccccc3)cc2C1	3%[11.4 µM]
Cc1nnc(SCC(=O)Nc2cccc(C(F)(F)F)c2)n1Cc1ccco1	-4%
c1cc2c(cc1-c1cnc3n1CCC3)OCCO2	32µM*
Cc1cccnc1NC(=O)Nc1cccc(C(F)(F)F)c1	7%
O=C(COc1ccc(Cl)cc1)Nc1ccccc1N1CCOCC1	6%
COc1ccc(N2C(=O)C3CCCN3C2c2ccccc2F)cc1 (stereo not drawn)	5%
Cc1nc2c(-c3ccc(F)cc3)c(C)nn2c(N2CCOCC2)c1C	22%
CN1CCCC2(CCN(C(=O)c3cc(C(F)(F)F)cc(C(F)(F)F)c3)CC2)C1	10%
CC(C)OC(=O)C1C(=O)CC(C)(O)C(C(=O)OC(C)C)C1c1cccnc1 (stereo not drawn)	5%
CCCN(Cc1cc2cc(OC)ccc2[nH]c1=O)C(=O)c1ccncc1	32µM*
O=C(c1cccnc1NCc1ccccc1)N1CCOCC1	-6%
Cc1nc(N2CCCCC2)c2sc(=S)n(C)c2n1	-1%
O=C(C1CCCN(S(=O)(=O)c2cnc[nH]2)C1)N1CCN(c2ccc(Cl)cc2)CC1 (stereo not drawn)	3%

(more compounds)
SMILES	HSD17B inh
COc1cccc(N2CCN(C(=O)C3C4C=CC5(CN(Cc6ccccc6Cl)C(=O)C35)O4)CC2)c1 (stereo not drawn)	4%
Cc1cc(Cl)cc(Cl)c1OCC(=O)NCc1ccco1	?
CCOc1ccc(N(CC(=O)N2CCCC2)S(=O)(=O)c2c(C)noc2C)cc1	6%
Nc1ccc(-c2nc3c(Cl)cc(N)cc3[nH]2)cc1	25µM*
CN1CCC(OC(=O)C23CCC(C)(C(=O)O2)C3(C)C)CC1 (stereo not drawn)	0%
CCCSCCCNC(=O)c1cc2c(s1)CS(=O)(=O)C2	3%
CCOC(=O)COc1ccc(C2NC(C(=O)O)CS2)cc1 (stereo not drawn)	5%
Cc1c(C(=O)N(Cc2cccs2)C2CCS(=O)(=O)C2)oc2ccccc12 (stereo not drawn)	9%
COc1cc(N)cc(NC(=O)c2ccncc2)c1	0%
O=C(CN1C(=O)NC2NC(=O)NC21)NC1CCCCC1 (stereo not drawn)	6%
C=CCOc1cccc(C2/C(=C(/O)c3ccccc3)C(=O)C(=O)N2CCCN2CCOCC2)c1 (stereo not drawn)	13%
Nc1nc(SCc2ccccn2)c2ncn(C3CCCC3)c2n1	8%[11.4 µM]
O=C(CSc1nnc(Cc2cc(=O)[nH]c(=O)[nH]2)n1-c1ccccc1)NCC1CCCO1 (stereo not drawn)	12%
Cc1ccc(SCCNC(=O)CN(c2ccc3c(c2)OCO3)S(C)(=O)=O)cc1	0%
CC(=O)c1ccc(Nc2nc(C)nc3c2oc2ccccc23)cc1	-20%
CN1CCN(C(=O)C23CC4CC(CC(C4)C2)C3)CC1	-5%
O=C(O)c1ccccc1[N+](=O)[O-]	-2%
O=C(Cc1c(F)cccc1Cl)Nc1cccnc1	11%
CCOC(=O)C1=C(C)NC(=O)N(C(C)=O)C1c1ccc(Cl)cc1 (stereo not drawn)	-3%
O=C(CCCN1C(=O)c2ccccc2C1=O)Nc1ccc(S(=O)(=O)N2CCOCC2)cc1	-11%
COCCn1c(SCC(=O)OCc2ccccc2)nc2c1c(=O)[nH]c(=O)n2C	-4%
O=C(O)c1ccc(Cl)cc1Cl	6%
Cc1ccc2nc(NC3=NCN(CCN4CCOCC4)CN3)nc(C)c2c1	-25%
CS(=O)(=O)Nc1cccc(-c2nccc(NCc3ccccc3)n2)c1	2%
CCNc1nc(SC(C)C(=O)OC)nc(N2CCOCC2)n1 (stereo not drawn)	8%

Following part
SMILES	HSD17B inh
COc1ccc(CC(C)N2CCN(c3ccccc3OC)CC2)cc1OC (stereo not drawn)	7%
CCC(=O)N(CCCN(C)C)c1nc(-c2cc(OC)ccc2OC)cs1	-2%
COc1cc(C(=O)Nc2nc(-c3cccs3)cs2)cc(OC)c1OC	32µM*
O=C(COc1ccc(F)cc1)NC1CC1	13%
Cc1ccc2c(c1)N(CC(=O)N1CCCc3ccccc31)C(=O)C(C)O2 (stereo not drawn)	-6%
COc1ccc(C2(O)CCN(Cc3nnnn3Cc3ccc(F)cc3)CC2)cc1	-7%
CC(C)c1cc(C(=O)NCc2cccnc2)no1	-3%
COCCNC(=O)Cn1c(=O)n(CCC(=O)NCCc2ccccc2)c(=O)c2ccccc21	4%
COc1ccc(C(=O)NCc2cccnc2)cc1C(=O)NCc1cccnc1	-5%[25.6 µM]
CCCCC(c1nnnn1CCOC)N1CCN(C(=O)c2ccco2)CC1 (stereo not drawn)	-4%
COc1cccc(N)c1	-1%
COc1ccc(-c2nnn(Cc3nn[nH]n3)n2)cc1OC	10%
COc1cc(C(=O)Nc2ccncc2)cc(OC)c1OC	10%
Nc1nonc1-c1noc(N2CCCCC2)n1	-2%
CC(=O)CC(C)(C)n1nnc(-c2ccccc2)n1	1%
O=c1c2ccccc2oc2nc(C3CCCCC3)n(Cc3ccco3)c(=O)c12	-8%
Oc1ccccc1-c1cc(-c2ccc3c(c2)OCCO3)n[nH]1	-23%
COC(=O)c1ccc(C)c(NC(=O)Cn2cnc3ccccc3c2=O)c1	0%
CS(=O)(=O)Nc1ccc(N2CCCCC2)c(Cl)c1	9%
Cn1c(=O)[nH]c(=O)c2c1nc(NCCCn1ccnc1)n2Cc1ccccc1	4%
COc1cccc(CN2CCN(CC(=O)Nc3ccccc3Cl)CC2)c1	-10%
CCN(CC)S(=O)(=O)c1cccc2nsnc12	-5%
CCN(CC)CCNC(=O)CS(=O)Cc1nc(-c2ccccc2Cl)oc1C (stereo not drawn)	-1%
CCOC(=O)N1CCN(C(=O)COc2ccc(Br)cc2)CC1	7%
CCCCC12CN3CC(C)(CN(C1)C31C(=O)N(C)c3ccc(C)cc31)C2=O (stereo not drawn)	-5%

16 successive compounds from above, for reference:
SMILES	HSD17B inh
CCCCC(c1nnnn1CCOC)N1CCN(C(=O)c2ccco2)CC1 (stereo not drawn)	-4%
COc1cccc(N)c1	-1%
COc1ccc(-c2nnn(Cc3nn[nH]n3)n2)cc1OC	10%
COc1cc(C(=O)Nc2ccncc2)cc(OC)c1OC	10%
Nc1nonc1-c1noc(N2CCCCC2)n1	-2%
CC(=O)CC(C)(C)n1nnc(-c2ccccc2)n1	1%
O=c1c2ccccc2oc2nc(C3CCCCC3)n(Cc3ccco3)c(=O)c12	-8%
Oc1ccccc1-c1cc(-c2ccc3c(c2)OCCO3)n[nH]1	-23%
COC(=O)c1ccc(C)c(NC(=O)Cn2cnc3ccccc3c2=O)c1	0%
CS(=O)(=O)Nc1ccc(N2CCCCC2)c(Cl)c1	9%
Cn1c(=O)[nH]c(=O)c2c1nc(NCCCn1ccnc1)n2Cc1ccccc1	4%
COc1cccc(CN2CCN(CC(=O)Nc3ccccc3Cl)CC2)c1	-10%
CCN(CC)S(=O)(=O)c1cccc2nsnc12	-5%
CCN(CC)CCNC(=O)CS(=O)Cc1nc(-c2ccccc2Cl)oc1C (stereo not drawn)	-1%
CCOC(=O)N1CCN(C(=O)COc2ccc(Br)cc2)CC1	7%
CCCCC12CN3CC(C)(CN(C1)C31C(=O)N(C)c3ccc(C)cc31)C2=O (stereo not drawn)	-5%

Next records follow.
SMILES	HSD17B inh
C[C@@H](C(=O)Nc1ccc2ccccc2c1)[C@@H]1C[C@@]1(C)[C@@H](NC(=O)c1ccncc1Cl)c1ccccc1	-7%
COc1cccc(N2CCCn3c2nc2c3c(=O)n(CCN3CCOCC3)c(=O)n2C)c1	14%
CCN1CCN(Cc2cc(=O)oc3ccc(Cl)cc23)CC1	-30%
Cc1nonc1NC(=O)CSc1ccc(-c2ccccc2)nn1	-7%
COc1ccc(CCNC(=O)Cn2c(=O)oc3ccccc32)cc1OC	-1%
Cn1c(Cn2c(=O)sc3ccccc32)nnc1SCC(=O)Nc1ccc(F)cc1	-8%
CCn1c(Cn2nnc(-c3ccccc3)n2)nnc1SCC(=O)Nc1cccc(C(C)=O)c1	-1%
COc1cccc(C2CC(c3c(Cl)cccc3Cl)n3nc(N)nc3N2)c1 (stereo not drawn)	3%
CCCOCC(C)O (stereo not drawn)	1%
Cc1cccc(N2CCN(C(=O)c3ccc(NC(=O)C4CCCO4)cc3)CC2C)c1 (stereo not drawn)	3%
O=C(C1COc2ccccc2O1)N1CCc2ccccc21 (stereo not drawn)	?
COC(=O)[C@@H]1C[C@@]2(O)[C@@H](O)[C@@H](O)[C@@H](O)C[C@H]2N1CC1CC1	-2%
CCc1ccccc1NC(=O)CSc1nc2c(c(-c3ccco3)c1C#N)CCCC2	-6%
CC(C)CCN1C(=O)c2ccc(C(=O)OCn3nnc4ccccc4c3=O)cc2C1=O	0%
COc1ccccc1NC(=O)CN(Cc1ccco1)C(=O)c1cccs1	11%
C=CCC1c2cccc(C(=O)O)c2C(=O)N1c1cccc(C)c1 (stereo not drawn)	-5%
O=C(c1nc2ccc([N+](=O)[O-])cc2[nH]c1=O)[C@@H](O)c1ccc2c(c1)OCO2	4%[11.4 µM]
c1ccc2c(c1)CNC1(CCCCC1)C2	8%
CCn1cc(C2=NOC(C(=O)Nc3ccc4c(c3)OCO4)C2)c(C)n1 (stereo not drawn)	-6%
COc1ccc(-c2nnc(SCC(=O)N3CCc4ccccc4C3)o2)cc1	1%
O=C(COc1ccc(S(=O)(=O)NC2CCCCC2)cc1)NCc1ccccn1	2%
CCOc1ccccc1C1C(C(=O)Nc2ccccc2OC)=C(C)Nc2nnnn21 (stereo not drawn)	10%
Cn1c(N)c(C(=O)COC(=O)Cc2ccsc2)c(=O)n(C)c1=O	12%
CCC(=O)N1CCN=C1SCc1ccc(F)cc1	2%
CCOC(=O)N1CCN(S(=O)(=O)c2ccc(C(=O)Nc3nc4ccc(F)cc4s3)cc2)CC1	?

The list goes on.
SMILES	HSD17B inh
COc1ccc(NC(=O)c2ccccc2Cl)cc1NC(=O)CN1CCOCC1	-2%
N#Cc1ccccc1Cn1c(=O)n(Cc2ccc(C(=O)NCc3ccco3)cc2)c(=O)c2sccc21	-7%
CCOC(=O)N1CCN(C(=O)CCCOc2ccccc2)CC1	3%
C=Cc1ccccc1Cl	-2%
OCc1nc2ccccc2n1CC(O)Cn1ccc2ccccc21 (stereo not drawn)	-4%
Cc1cccc(-n2nc3c(c2NC(=O)c2ccc(S(=O)(=O)N4CCOCC4)cc2)CSC3)c1C	6%
Cc1ccc(S(=O)(=O)n2nc(OC(=O)c3cccs3)cc2N)cc1	-11%
COc1ccc(OCC(O)CNCc2ccco2)cc1 (stereo not drawn)	2%
COC(=O)NCc1cc2cc(Cl)ccc2[nH]1	-3%
CC1(C)NC(=O)N(CN2C(=O)NC(C)(C)C2=O)C1=O	5%
O=C(c1ccc(Cn2cc(Cl)cn2)o1)N1CCN(Cc2ccc3c(c2)OCO3)CC1	-13%
Cc1oc2cc3oc(=O)c4c(c3cc2c1C)CCC4	-4%
C=CCn1c(SCC#N)nc2ccccc2c1=O	0%
CSC1(SC2=NCCN2)SC2(NCCN2)S1	-7%[11.4 µM]
COc1cccc(NC(=O)[C@@H]2CCCN2C(=O)C2CCN(S(=O)(=O)c3ccc(C)cc3)CC2)c1	8%
N#CCCCCN1c2cccc3cccc(c23)S1(=O)=O	?
Cc1nc2ccccn2c1/C(O)=C1\C(=O)C(=O)N(CCCN(C)C)C1c1ccc(F)cc1 (stereo not drawn)	4%
CCOC(=O)c1c(N)sc(C(=O)Nc2ccc3c(c2)OCO3)c1C	-1%
Cn1cnc2c(N3CCCCC3)nccc21	-7%
Cc1cc(Cl)ccc1OCC(=O)Nc1nc(N)nc(N)n1	0%[11.4 µM]
c1ccc(-n2c(-c3ccco3)nnc2N2CCOCC2)cc1	-6%
COc1ccc(S(=O)(=O)N2Cc3ccccc3CC2C(=O)O)cc1OC (stereo not drawn)	8%
CCc1nnc2sc(-c3cc(-c4ccccc4)nc4ccccc34)nn12	-26%
CC1CC(C)CN(C(=O)COc2ccc(-c3nnco3)cc2)C1 (stereo not drawn)	2%
Cc1cccc(-c2nc(CS(=O)CC(=O)N3CCc4ccccc4C3)c(C)o2)c1 (stereo not drawn)	-12%

Screening results deposited in PubChem BioAssay by National Center for Advancing Translational Sciences (NCATS).

Not all compounds are listed; the hit share may differ from the screen's.
